High-throughput results deposited in PubChem by National Center for Advancing Translational Sciences (NCATS).
AmpC nodet inh: AmpC beta-lactamase inhibition, detergent-free assay. AID 585. P00811. actives 1.8% (n = 71,000). Potency, µM (series often up to 28.7 µM), for inactives: at the highest dose activity change, negative = inhibition. AmpC nitrocefin hydrolysis, absorbance 480 nm, no detergent; potencies from a single point are estimates; active = falling curve, for most hits resting on a single point; inconclusive = weak or doubtful change; inactive = flat or rising curve; further: % of control where 0% means no effect; about half of the hits show no inhibition at the top dose; a quarter of the inactives give rising signals
Target sequence (P00811 whole entry, looked up): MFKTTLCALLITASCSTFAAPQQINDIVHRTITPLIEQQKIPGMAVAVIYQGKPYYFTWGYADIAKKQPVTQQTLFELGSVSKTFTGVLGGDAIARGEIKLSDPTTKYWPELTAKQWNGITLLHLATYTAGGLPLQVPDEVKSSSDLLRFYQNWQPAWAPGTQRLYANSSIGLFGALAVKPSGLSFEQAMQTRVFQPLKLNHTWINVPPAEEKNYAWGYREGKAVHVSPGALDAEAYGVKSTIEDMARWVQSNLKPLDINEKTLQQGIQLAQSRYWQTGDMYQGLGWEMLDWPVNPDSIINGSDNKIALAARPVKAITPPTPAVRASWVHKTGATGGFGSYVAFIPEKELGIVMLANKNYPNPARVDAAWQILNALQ
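AmpC in 20 mM phosphate buffer pH 7.0 was preincubated 15 min at room temperature with compounds. Nitrocefin (800 uM stock) was then added and hydrolysis followed at 480 nm every 20 s for 4 min.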
Numbers without * were called inactive; ? = inconclusive; [ ] = dose if it differs, or a comment. Potency means the concentration at half of the fitted maximal effect. The list is partial, so the mix of outcomes need not match the whole.

SMILES	AmpC nodet inh
CCCCOCCOCCOCCCC	-6%
Cc1ccc2nc(NCCCNC(=O)c3cnccn3)c(C#N)cc2c1	25%
N#CCCn1c(=O)c(-c2ccc(Cl)cc2)nc2cnc(Oc3ccccc3)nc21	-2%
Cc1ccc(S(=O)(=O)N2CCC(C(=O)Nc3nnc(C4CCCC4)s3)CC2)cc1	6%
Cn1c(=O)oc2cc(S(=O)(=O)N3CCC(C(=O)NCC4COc5ccccc5O4)CC3)ccc21 (centres undefined)	4µM*[single pt active]
O=C(CSCc1ccccc1)N1CCN(c2ccc(F)cc2)CC1	55%
O=C(C1CCC1)N1CCc2cc(S(=O)(=O)Nc3ccc4c(c3)OCCO4)ccc21	?
CC(=O)Nc1nc2c(c3c1c(=O)oc1ccccc13)CC(C)CC2 (centres undefined)	21%
O=C(Nc1ccccc1)[C@@]12C[C@@H]1/C(=N/O)c1ccccc1O2	11%
O=C(CSc1nc2nc[nH]c2c(=O)[nH]1)NC1CCCCC1	-13%
Cc1cc(NC(=O)c2ccc(NC(=O)C(C)Oc3ccccc3)cc2)no1 (centres undefined)	-1%
O=C(c1ccccc1F)N1CCc2ccccc21	-6%
Cc1cccc2cc(C(c3nnnn3CC3CCCO3)N3CCc4ccccc4C3)c(=O)[nH]c12 (centres undefined)	27%
CCN(CC)CCOC(=O)c1c(C)oc2ccc(O)cc12	-7%
O=C(OCc1ccccc1)C1CCCN1C(=O)c1cccs1 (centres undefined)	-4%
CC(C)C(OC(=O)CN1C(=O)COc2ccccc21)C(=O)NC1CCCC1 (centres undefined)	22%
CN(CCNC(=O)C1CC(=O)N(C2CCCC2)C1)Cc1ccccc1 (centres undefined)	5%
COc1cccc(N=C2SC(C(=O)Nc3ccccc3F)CC(=O)N2C)c1 (centres undefined)	40%
O=C(COc1ccc(S(=O)(=O)N2CCOCC2)cc1)Nc1ccc(Cl)c(C(F)(F)F)c1	19%
CCn1ccc(C(=O)Nc2ccc(Cl)cn2)n1	19%

Of the compounds above, these contain an NH in an aromatic ring:
SMILES	AmpC nodet inh
O=C(CSc1nc2nc[nH]c2c(=O)[nH]1)NC1CCCCC1	-13%
Cc1cccc2cc(C(c3nnnn3CC3CCCO3)N3CCc4ccccc4C3)c(=O)[nH]c12 (centres undefined)	27%

Carrying on:
SMILES	AmpC nodet inh
O=C(CCNS(=O)(=O)c1cccs1)N1CCc2ccccc2C1	5%
COC(=O)N1CCC2(CCN(Cc3ccccc3OC)CC2)CC1	6%
N#CC1=C(N)C(C#N)(C#N)C(c2cccnc2)C2CCCC=C12 (centres undefined)	-4%
COc1ccc(Cl)cc1NC(=O)c1nc2nc(C)cc(C(F)F)n2n1	-9%
Nn1c(COc2cccc(Br)c2)nnc1SCC(=O)N1CCc2ccccc2C1	37%
Cc1cccc(OCC(=O)Nc2ccc3c(c2)nc(CCN2CCN(C)CC2)n3C)c1	0%
CCOC(=O)N1CCN(C(=O)c2ccc(-n3c(=S)[nH]c4ccccc4c3=O)cc2)CC1	39%
Cn1cnnc1SCCn1c(N2CCCCC2)nc2c1c(=O)[nH]c(=O)n2C	1%
COc1cc(-c2cc(C(=O)O)c3c(OC)c(OC)c(OC)cc3n2)ccc1O	0%
Cc1ccc(-n2c(SCc3ccc(C#N)cc3)nnc2-c2ccccn2)cc1	78%
Cc1nn(-c2nnc(C)c(=O)[nH]2)c(C)c1SCC(=O)Nc1ccc(F)cc1	-3%
CC(=O)c1cccc(NC(=O)NC2CCCCC2)c1	-8%
CSCC[C@H](NC(=O)OC(C)(C)C)c1nnc(SCC(=O)N(C)C)o1	8%
CCOC(=O)CN1C(=O)C(O)(C2CCc3ccccc3C2=O)c2ccccc21 (centres undefined)	29%
O=C(CSc1nnnn1-c1ccccc1)Nc1ccc(N2CCOCC2)c(Cl)c1	12%
CC1CN(c2ncnc3c2oc2ccccc23)CC(C)O1 (centres undefined)	49%
O=C(Nn1cnnc1)c1cc2c(s1)CCCC2	1%
COc1ccc(CC(NC(C)=O)C(=O)NC2CCN(c3nnnn3-c3ccccc3)CC2)cc1 (centres undefined)	56%
COCC(=O)N(CCc1ccc(OC)cc1)Cc1nc2ccccc2c(=O)[nH]1	16%
NNc1nncc2ccccc12	-16%[12.8 µM]
CC(C)NC(=O)CCCn1c(=S)[nH]c2cc3c(cc2c1=O)OCO3	4%
CC(=O)Nc1ccc(S(=O)(=O)N2CCC(N(C)CCC(C)C)CC2)cc1	-10%
O=C(c1csnn1)N1CCC2(CC1)CCN(c1ccccn1)CC2	43%
C[C@@H](N=C(N)N)C(=O)O	-1%[5.75 µM]
Cc1nn(-c2ccc(Cl)cc2)c2sc(C(=O)N3CCN(c4ccccn4)CC3)cc12	60%
COc1ccccc1NC(=O)CCc1c(C)[nH]c(=O)c(C#N)c1C	-4%
CN(C)CCCn1c2ccccc2c2cnccc21	5%[5.75 µM]
NC/C(=N\O)c1ccc(Cl)cc1Cl	-6%
CCn1c(SCC(=O)N2CCN(S(=O)(=O)c3ccccc3)CC2)nnc1-c1cccs1	48%
O=C(O)c1cc(C(=O)C(=O)c2cc(C(=O)O)c(O)c3ccccc23)c2ccccc2c1O	-22%[5.75 µM]
O=C(CCCC1=NS(=O)(=O)c2ccccc2N1)N1CCN(c2ccc(Cl)cc2)CC1	4µM*[single pt active]
COCCNC(=O)c1c(N)n(-c2cccc(C)c2)c2nc3ccccc3nc12	129%
CCn1c(=O)cc(OCC(=O)NCc2cccnc2)c2ccccc21	8%
COc1cccc(-n2c(C)nc3c(cnn3-c3ccc(C)cc3)c2=O)c1	55%
COc1ccc(-c2nnc(SCC(=O)Nc3ncc(C)s3)n2-c2ccccc2)cc1OC	101%
NCc1nnn(Cc2ccccc2)c1N	-2%[5.75 µM]
CCCN1CCN(C(c2cc3cc(OCC)ccc3[nH]c2=O)c2nnnn2C2CCCCC2)CC1 (centres undefined)	103%
CCOc1ccccc1NC(=O)N1CCC(c2nc3ccc(C)cc3[nH]2)CC1	27%
Cc1nnc(SCCn2c(N3CCN(c4ccccc4)CC3)nc3c2c(=O)n(C)c(=O)n3C)s1	-19%
COC(=O)c1cccc(NC(=O)CSc2nc(=O)cc(N)n2-c2ccccc2)c1	17%

A second format for some results above.
| Structure | AmpC nodet inh |
| --- | --- |
| CCn1c(=O)cc(OCC(=O)NCc2cccnc2)c2ccccc21 | 8% |
| COc1cccc(-n2c(C)nc3c(cnn3-c3ccc(C)cc3)c2=O)c1 | 55% |
| COc1ccc(-c2nnc(SCC(=O)Nc3ncc(C)s3)n2-c2ccccc2)cc1OC | 101% |
| NCc1nnn(Cc2ccccc2)c1N | -2%[5.75 µM] |
| CCCN1CCN(C(c2cc3cc(OCC)ccc3[nH]c2=O)c2nnnn2C2CCCCC2)CC1 (centres undefined) | 103% |
| CCOc1ccccc1NC(=O)N1CCC(c2nc3ccc(C)cc3[nH]2)CC1 | 27% |
| Cc1nnc(SCCn2c(N3CCN(c4ccccc4)CC3)nc3c2c(=O)n(C)c(=O)n3C)s1 | -19% |

Next section.
SMILES	AmpC nodet inh
O=C(Cn1ncc2c1-c1ccccc1OC2)N1CCN(Cc2ccc3c(c2)OCO3)CC1	170%
CCCCC(=O)NCCc1ccc(S(N)(=O)=O)cc1	-8%
COCC(=O)O	-11%
Cc1nn(CC(=O)NCCc2ccccc2)c(=O)c2ccccc12	12%
CCCCOC(=O)c1ccc(NC(=O)CSCc2n[nH]c(=O)[nH]2)cc1	11%
Nc1nc(-c2ccc(Cl)cc2)cc(C(F)(F)F)n1	-2%
O=C(Nc1nnc(C2CC2)o1)c1ccc(S(=O)(=O)N2CCCc3ccccc32)cc1	?
CCOC(=O)C(C#N)c1ccccn1 (centres undefined)	-15%
COc1cc(C)c(N(C(C)=O)c2ccccc2)c(C)c1	46%
C/C(CC(O)(/C=N/O)c1ccccc1)=N\O (centres undefined)	-6%
O=c1[nH][nH]c(=S)c(=O)[nH]1	4%[5.75 µM]
COc1ccc(-c2nnc3sc(CCN4C(=O)c5ccccc5C4=O)nn23)cc1	54%
c1cn(-c2cc(-c3ccc4c(c3)OCO4)ncn2)cn1	15%
CCN(Cc1ccccc1)S(=O)(=O)c1ccc2oc(C(=O)O)c(C)c2c1	-14%
CCCC(=O)NCc1ccc2c(c1)cc(C)n2C	-4%
CN(C)S(=O)(=O)c1cccc(C(=O)Nc2ccc(Cl)cn2)c1	-3%
COc1ccc(C)cc1-n1nnnc1SCC(=O)Nc1cc(C)on1	4%
Cc1nc2ccccc2c(=O)n1NCc1cc(Br)cs1	-6%
N[C@@H](C(=O)O)[C@@H]1C[C@H]1C(=O)O	-10%
Cc1cc(NC(=O)COc2ccccc2)n(-c2ccccc2)n1	4%
CCCn1c(-c2ccc(F)cc2)nc2c(NCC3CCN(C)CC3)nc(C)nc21	43%
COc1ccc(NC(=O)C(C)N(c2ccc(C)cc2)S(C)(=O)=O)c(OC)c1 (centres undefined)	34%
CCOc1ccccc1CNC(=O)c1cc2occc2n1C	10µM*[single pt active]
Cc1c(NC(=O)c2ccccc2NS(=O)(=O)c2ccc(F)cc2)c(=O)n(-c2ccccc2)n1C	-11%
CC(C)CC(=O)Nc1ccc2oc(-c3cccnc3)nc2c1	8%
COc1ccc(CNCCNC(=O)c2ccco2)c(OC)c1OC	-7%
CCC(=O)c1ccc(OCCn2cncn2)cc1	-4%
Cc1ccc(C)c(CSc2nnc([C@@H](N)C(C)C)o2)c1	42%
c1ccc(NC(=NCc2ccco2)c2ccccc2)cc1	-3%
c1ccc(Cc2nn3c(C4COc5ccccc5O4)nnc3s2)cc1 (centres undefined)	32%
O=C(CC1Nc2ccccc2NC1=O)Nc1ccccc1 (centres undefined)	3%
CCOc1ccc(OCC)c(NS(=O)(=O)c2cccc3nsnc23)c1	11%
CCn1c2ccccc2c2cc(C3C(C#N)=C(N)OC4=C3C(=O)CC(C)(C)C4)ccc21 (centres undefined)	-9%
CCOC(=O)c1ncn2c1C(=O)OC2(C)C	?
Cc1cc(C(=O)CN2C(=O)c3ccccc3C2=O)c(C)n1C1CC1	-3%
CC(=O)NCCNc1nc(-c2ccccc2C)nc2ccccc12	2%
CCCCCN=C(C)c1c(O)c2ccccc2oc1=O	0%
Nc1ccc(CCN2CCN(c3cccc(C(F)(F)F)c3)CC2)cc1	42%
CCCCOc1ccc(Cl)cc1CSc1nncn1N	23%
O=C(CSc1nnc(CNc2ccc(Cl)cc2)n1Cc1ccccc1)NCc1ccco1	78%
COCCCNC(c1ccccc1)c1ccncc1 (centres undefined)	-5%
CSc1oc(-c2ccco2)nc1S(=O)(=O)c1ccc(F)cc1	-2%
COc1ccc2c(c1)OC1(C)CC2C(C(=O)c2ccccc2OC)C(=O)N1 (centres undefined)	20%
Cn1c(C(=O)N2CCN(c3ccc(F)cc3)CC2)cc2c(=O)n(C)c3ccccc3c21	10%
CC(=O)N1CCN(c2ccccc2NC(=O)c2cc(Br)ccc2Cl)CC1	78%
COCCCn1c(CCC(=O)O)ccc1-c1ccc(F)cc1	30%
CSC1=C(C#N)C(c2cccs2)CC(=O)N1C (centres undefined)	10%
Cc1nc(N2CCOCC2)c2nc(-c3ccccc3)n(CCN3CCCCC3)c2n1	26%
NS(=O)(=O)c1ccc(NS(=O)(=O)/C=C/c2ccccc2)cc1	-17%
O=C(O)C1CCCN1c1ncccn1 (centres undefined)	-1%
CCCCC(=O)Nc1ccc2c(c1)nc1n2CCOC1	-6%
CC(=O)c1cccc(NC(=O)CN(C2CCCCC2)S(C)(=O)=O)c1	-6%
Cc1cc(C)nc(SCc2nnc(SCC(=O)Nc3ccc(Cl)c(C(F)(F)F)c3)o2)n1	47%
O=S1OCC2C(CO1)C1(Cl)C(Cl)=C(Cl)C2(Cl)C1(Cl)Cl (centres undefined)	-14%
CCn1c(CNc2ccccc2Cl)nnc1SCCN1CCCCC1	26%
O=C(O)Cn1cc(C(=O)c2ccco2)c2ccccc21	-1%
Cc1ccc(S(=O)(=O)N2CCN(c3ncnc4c3cnn4-c3ccccc3)CC2)cc1	6%
COc1ccc(CCNC(=O)c2cnn3ccccc23)c(OC)c1OC	18%
O=c1[nH]c2cc(Cl)ccc2c(O)c1-c1ccc(Oc2ccccc2)cc1	-15%
COc1ccc(-c2cc(C(F)(F)F)nc(SCCC(=O)N3CCN4CCCC4C3)n2)cc1 (centres undefined)	136%
(cont.)
SMILES	AmpC nodet inh
O=C(CSc1nc2ccccc2c(=O)[nH]1)c1cccs1	-16%
O[C@H](CN1CC1)[C@@H](O)CN1CC1	1%[5.75 µM]
Cc1cccc2cc(C(c3nnnn3Cc3ccc4c(c3)OCO4)N3CCCC3)c(=O)[nH]c12 (centres undefined)	27%
COc1ccccc1C1C(C(N)=O)=C(C)Nc2ncnn21 (centres undefined)	-2%
O=C(CS(=O)(=O)c1cn(Cc2cccc(F)c2)c2ccccc12)N1CCOCC1	88%
Cc1cccc(-n2nnc(C(=O)NCc3ccco3)c2N)c1	-6%
COc1ccc2cc(C(c3nnnn3CCc3ccccc3)N3CCC(O)CC3)c(=O)[nH]c2c1 (centres undefined)	91%
CS(=O)(=O)N1CCC2(CCN(Cc3ccc(C#N)cc3)CC2)CC1	-5%

A draw from above in order of heavy-atom count, highest first:
SMILES	AmpC nodet inh
COc1ccc2cc(C(c3nnnn3CCc3ccccc3)N3CCC(O)CC3)c(=O)[nH]c2c1 (centres undefined)	91%
Cc1cccc2cc(C(c3nnnn3Cc3ccc4c(c3)OCO4)N3CCCC3)c(=O)[nH]c12 (centres undefined)	27%
O=c1[nH]c2cc(Cl)ccc2c(O)c1-c1ccc(Oc2ccccc2)cc1	-15%
CS(=O)(=O)N1CCC2(CCN(Cc3ccc(C#N)cc3)CC2)CC1	-5%
Cc1cccc(-n2nnc(C(=O)NCc3ccco3)c2N)c1	-6%
O=C(CSc1nc2ccccc2c(=O)[nH]1)c1cccs1	-16%
O[C@H](CN1CC1)[C@@H](O)CN1CC1	1%[5.75 µM]
